PKD1 inh: inhibitors of human PKD1 kinase, biochemical, fluorescence polarization; PKD1 kinase fluorescence polarization assay; 200,000 tested, 0.056% active; inhibition, %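 (about 10 µM by stock and volumes)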; Serine/threonine-protein kinase D1 (Homo sapiens), Q15139;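 active = inhibition of 50% or more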;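 also: controls were vehicle for no effect and a reference inhibitor for full effect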
Target sequence (Q15139 whole entry, looked up): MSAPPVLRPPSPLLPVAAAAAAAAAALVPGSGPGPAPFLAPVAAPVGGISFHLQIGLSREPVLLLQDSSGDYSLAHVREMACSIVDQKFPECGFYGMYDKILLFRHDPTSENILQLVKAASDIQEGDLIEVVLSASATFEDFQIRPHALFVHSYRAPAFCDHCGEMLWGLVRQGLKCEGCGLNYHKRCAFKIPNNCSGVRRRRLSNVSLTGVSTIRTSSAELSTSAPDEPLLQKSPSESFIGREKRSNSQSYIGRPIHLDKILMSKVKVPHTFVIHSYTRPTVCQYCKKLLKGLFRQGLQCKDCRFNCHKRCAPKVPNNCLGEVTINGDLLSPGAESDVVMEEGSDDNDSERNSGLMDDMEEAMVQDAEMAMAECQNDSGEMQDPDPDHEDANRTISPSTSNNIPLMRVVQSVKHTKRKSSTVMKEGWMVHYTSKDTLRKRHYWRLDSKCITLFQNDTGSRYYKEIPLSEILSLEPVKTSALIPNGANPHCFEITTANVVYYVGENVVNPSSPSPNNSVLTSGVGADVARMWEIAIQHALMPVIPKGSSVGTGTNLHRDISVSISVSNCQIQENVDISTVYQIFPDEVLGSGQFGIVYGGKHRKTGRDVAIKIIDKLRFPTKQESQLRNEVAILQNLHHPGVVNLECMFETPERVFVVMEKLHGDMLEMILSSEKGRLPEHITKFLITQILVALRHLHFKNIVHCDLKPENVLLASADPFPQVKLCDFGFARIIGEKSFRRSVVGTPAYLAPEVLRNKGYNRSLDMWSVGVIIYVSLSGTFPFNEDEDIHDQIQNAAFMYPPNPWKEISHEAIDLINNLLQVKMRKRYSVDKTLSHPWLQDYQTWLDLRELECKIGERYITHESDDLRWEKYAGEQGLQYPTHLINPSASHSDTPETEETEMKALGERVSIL
RGS16-Gao: modulators of RGS16 binding to Galphao, primary screen, biochemical, human proteins, multiplexed bead flow cytometry | Regulator of G-protein signaling 16 (Homo sapiens) + Guanine nucleotide-binding protein … | bead-based flow cytometry RGS16-Galphao binding, fluorescence; actives lie on both sides | binding response (% of control), % at 10 µM | 220,000 tested, 0.38% active;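 active = below 25% or above 175%, edge rows of some plates excepted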;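 also: Galphao activated by GDP with aluminum fluoride before binding; 100% = wells without compound and 0% = beads without RGS; some results beyond the cut were filed as inactive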
Insulin prom inh: inhibitors of insulin promoter-driven GFP, primary screen, imaging, TRM-6 cells (human fetal islet line), eGFP reporter, cell count. reporter expression induced with tamoxifen. inhibition, % at 2 µM. 130,000 tested, 0.9% active. AID 1273, 2008;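 active = inhibition above the mean plus 3 SD, with well images judged a real hit on visual review, cut at about 60% in these data, passing the limit was not always enough; inconclusive = inhibition over the cutoff but images rejected on review; inactive = inhibition not above the cutoff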
GALR2 ag: GALR2 receptor agonists, primary screen, cell-based; AID 803, 2007; GALR2-expressing cells, agonist activation read-out; 140,000 tested, 0.48% active; Galanin receptor type 2 (Homo sapiens), O43603; activation, %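 (tested at 5 µM)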;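 active = above mean plus 3 SD of all compounds, about 5% in these data, not always enough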;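 also: 0% = vehicle buffer wells and 100% = reference agonist at full effect; tested in CHO reporter cells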
HSV replic up: enhancers of HSV replication in host cells, fold increase, host cell viability; HSV replication augmentation in cells; maximum fold increase; 220,000 tested, 0.005% active;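 active = peak rise of 1.5-fold or more in the series; inconclusive = self-fluorescent or not available for retest; tested in PC3 cells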;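 also: first round at 10 µM; read as green reporter fluorescence; hits show the peak of a series up to 25 µM; 1 = signal of infected wells without compound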
Insulin prom inh cell count: also measured in Insulin prom inh; calls as there; normalized cell count, %; measured here: cell count, toxicity; reference of the scale not given here;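 cells exposed to compound for 48 h; stained nuclei by imaging scaled within each plate; lower means fewer cells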
HSV replic up primary fold: also measured in HSV replic up; calls as there; fold increase; compound at 10 µM; measured here: primary screen fold increase 10 uM; tested in PC3 cells;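 GFP signal in the first replicate; 1 = infected wells without compound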
An asterisk follows results filed as active; i = inactive; ? = inconclusive; / = no result given.

structure | HSV replic up | RGS16-Gao | PKD1 inh | Insulin prom inh cell count | HSV replic up primary fold | GALR2 ag | Insulin prom inh
COc1ccc(NC(=O)CC(C)c2ccccc2)c([N+](=O)[O-])c1 (stereo unspecified) | i | 110.1 | 1.7 | 58.9 | 0.96 | -0.7 | -442.9
COc1ccc(N2CCN(CCNS(=O)(=O)c3cccc4nsnc34)CC2)cc1 | i | 103.0 | -4.4 | / | 1.03 | -0.9 | /
C=CCn1c(SCC(=O)Nc2cc(OC)c(NC(=O)c3ccco3)cc2OC)nnc1-c1ccncc1 | i | 112.2 | -3.5 | 100.0 | 1.02 | -0.9 | 69.2
COc1cc(/C=C(/NC(=O)c2ccccc2Cl)C(=O)O)cc(OC)c1OC | i | 108.0 | 6.6 | 106.8 | 1.06 | -1.5 | -33.3
O=c1cc(-c2ccc(Br)cc2)[nH][nH]1 | i | 99.7 | -6.3 | 106.4 | 1.16 | / | -39.5
O=C(O)c1cc(NN=Nc2ccc(Br)cc2)cc([N+](=O)[O-])c1 | i | 101.8 | / | / | 1.19 | / | /
CC1=CCC(C(=O)N/N=C/c2cccs2)C(c2ccc(F)cc2)C1 (stereo unspecified) | i | 97.5 | -1.1 | 72.1 | 0.94 | 0.6 | 37.1
CCOc1ccc(NC2=NC(C)(C)N=C(N)N2)cc1 | i | 100.6 | 1.2 | / | 0.96 | -1.0 | /
CCC(=O)c1cc2c(cc1NC(=O)C(C)C)OCCO2 | i | 116.6 | -1.0 | / | 0.82 | -0.4 | /
COc1ccc(C(CNC(=O)c2cccnc2SC)N2CCOCC2)cc1 (stereo unspecified) | i | 102.6 | -0.8 | / | 0.97 | 0.8 | /
O=C(NCc1ccncc1)C1COc2ccccc2O1 (stereo unspecified) | i | 96.1 | -4.7 | 95.8 | 1.01 | -1.8 | -20.0
COc1ccc(CC(=O)NNC(=O)c2ccc(SCc3cc(F)ccc3F)c([N+](=O)[O-])c2)cc1 | i | 101.4 | -3.2 | 132.6 | 0.73 | -1.0 | 43.3
CCn1c(C(O)c2ccc3c(c2)OCO3)nc2ccccc21 (stereo unspecified) | i | 102.0 | -11.9 | 57.1 | 1.07 | -0.8 | -2.5
CC(=O)c1cccc(NC(=O)Cc2cccs2)c1 | i | 97.2 | -4.0 | 103.2 | 0.95 | 0.1 | 29.8
CC(=O)Nc1ccc(S(=O)(=O)NC(=O)C23CC4CC(CC(C4)C2)C3)cc1 | i | -10.2 | -6.4 | / | 0.96 | 0.0 | /
CCOC(=O)/C=C/C(=O)Nc1ccc(S(=O)(=O)Nc2c(C)cc(C)cc2C)cc1 | i | 108.3 | -11.6 | 130.0 | 0.91 | -0.1 | -10.3

Among those listed so far, these contain a nitro group on carbon:
structure | HSV replic up | RGS16-Gao | PKD1 inh | Insulin prom inh cell count | HSV replic up primary fold | GALR2 ag | Insulin prom inh
COc1ccc(NC(=O)CC(C)c2ccccc2)c([N+](=O)[O-])c1 (stereo unspecified) | i | 110.1 | 1.7 | 58.9 | 0.96 | -0.7 | -442.9
O=C(O)c1cc(NN=Nc2ccc(Br)cc2)cc([N+](=O)[O-])c1 | i | 101.8 | / | / | 1.19 | / | /
COc1ccc(CC(=O)NNC(=O)c2ccc(SCc3cc(F)ccc3F)c([N+](=O)[O-])c2)cc1 | i | 101.4 | -3.2 | 132.6 | 0.73 | -1.0 | 43.3

Next structures:
structure | HSV replic up | RGS16-Gao | PKD1 inh | Insulin prom inh cell count | HSV replic up primary fold | GALR2 ag | Insulin prom inh
CCS(=O)(=O)N1CCN(c2ccccc2)CC1 | i | 102.2 | / | / | 1.06 | / | /
O=C(N/N=C/c1cccs1)c1cc(C2CC2)nc2ccccc12 | i | 89.9 | -3.8 | 45.3 | 0.66 | -1.9 | -4.0
CCOC(=O)N1CCN(C(=S)NC(=O)c2ccc(F)cc2)CC1 | i | 104.6 | 3.8 | / | 1.01 | / | /
CCS(=O)(=O)N1Cc2ccccc2CC1C(=O)OCC(=O)Nc1ccc(C)cc1 (stereo unspecified) | i | 102.0 | -1.9 | 98.6 | 0.89 | -1.0 | -7.1
COc1ccc(OC)c(S(=O)(=O)N2CCN(c3ccccn3)CC2)c1 | i | 101.2 | -10.4 | 120.8* | 0.82 | -1.6 | 74.3*
C=CCn1c(COc2ccccc2)nnc1SC(C)C(=O)N/N=C/c1cc(Cl)ccc1O (stereo unspecified) | i | 92.0 | -6.1 | 105.0 | 0.75 | 1.4 | -66.7
COc1cc(NS(=O)(=O)c2ccc(NC(=O)c3ccc(S(=O)(=O)N4CCCCC4)cc3)cc2)ncn1 | i | 106.7 | 1.4 | 92.2 | 0.98 | / | 28.6
Cn1cc(CNC(=O)c2cc(-c3ccc(Br)cc3)nc3ccccc23)cn1 | i | 99.2 | 3.6 | / | 0.95 | / | /
COc1ccc(-n2c(=O)c3ccccc3n(CC(=O)c3ccccc3)c2=O)cc1OC | i | 94.3 | -1.6 | 124.7 | 1.04 | / | -25.0
COc1cc(OC)cc(C(C)=O)c1 | i | 91.3 | -10.8 | 72.2 | 0.79 | -0.8 | -57.6
Cc1ccc2c(CC(=O)N3CCOCC3)coc2c1 | i | 95.3 | 9.0 | 149.4 | 0.99 | / | -41.7
Nc1cnccc1C(=O)O | ? | 101.5 | 2.3 | 127.9 | / | / | -20.0
CCCN(Cc1cc2cccc(C)c2[nH]c1=O)S(C)(=O)=O | / | 124.0 | -7.2 | 99.6 | / | 0.5 | -20.8
CC1CCC(C(C)C)C(OC(=O)Cn2c(-c3ccc(F)cc3)[n+](C)c3ccccc32)C1 (stereo unspecified) | i | 102.5 | 1.9 | 122.8 | 0.78 | -0.4 | -35.3
CC(C(=O)c1ccccc1)n1c(N2CCOCC2)nc2c1c(=O)n(C)c(=O)n2C (stereo unspecified) | i | 101.8 | -4.5 | 93.2 | 0.95 | -1.2 | 25.0
CCOC(=O)CSc1nnc([C@H](Cc2ccccc2)NC(=O)OC(C)(C)C)o1 | i | 87.1 | -1.0 | 130.0 | 0.75 | -0.5 | -25.0
CC1=C(C(N)=O)C(c2ccc3c(c2)OCO3)n2nc(-c3cccc(C)c3)nc2N1 (stereo unspecified) | i | 105.8 | 8.7 | 100.8 | 0.77 | -1.9 | 22.2
Cc1csc(NC(=O)c2cc3c(s2)-c2ccccc2OC3)n1 | i | 99.2 | -12.0 | / | 0.9 | 9.3 | /
Cn1ccnc1SCC(=O)Nc1cccc(S(=O)(=O)N2CCCCC2)c1 | i | 104.0 | -0.8 | / | 1.01 | / | /
COC(=O)c1cc(NC(=O)CN(C)Cc2ccccc2)cc(C(=O)OC)c1 | i | 109.0 | / | / | 1.07 | / | /
COc1ccc(OC)c(S(=O)(=O)N2CCC(C(=O)Nc3cccc(C)c3)CC2)c1 | i | 108.9 | 0.8 | 8.4 | 0.72 | -1.5 | 5.7
C/C(=N\OC(=O)c1ccccc1)c1c(C)nc2cc(C)ccn12 | i | 99.6 | -5.7 | / | 0.98 | / | /
O=C(Nc1nnc(C(F)(F)F)s1)c1ccc(N2C(=O)C3C4C=CC(C4)C3C2=O)cc1 (stereo unspecified) | i | 113.6 | -2.2 | 18.1 | 0.93 | -2.7 | 29.0
COc1ccc(OC)c(C(=O)c2c(C)oc3cc([N+](=O)[O-])c(O)c([N+](=O)[O-])c23)c1 | i | 100.1 | / | / | 1.14 | / | /
Cc1c2cnn(-c3ccccc3)c(=O)c2c(C)n1CCCC(=O)N1CCN(C)CC1 | i | 99.5 | 6.3 | / | 0.88 | -3.7 | /
O=S(=O)(Nc1nc2ccccc2s1)c1ccc(Cl)nc1 | i | 111.0 | / | / | 0.93 | / | /
CCC(CC)=NNc1ccc([N+](=O)[O-])cc1[N+](=O)[O-] | i | 99.2 | 2.8 | / | 0.81 | / | /
COc1cc(Cl)cc(NC(=O)CCN2CCN(C)CC2)c1 | i | 98.8 | -6.0 | 87.8 | 0.86 | -2.2 | 0.0
Cc1cc(C)n2nc(SCCOc3ccccc3)nc2n1 | i | 101.9 | 0.2 | / | 0.98 | / | /
CCn1nc(C)c(CN2CCCC(CO)(Cc3cccc(Cl)c3)C2)c1C (stereo unspecified) | i | 102.5 | 0.1 | / | 0.94 | / | /
COCCNC(=O)CCCn1c(=O)c2ccccc2n(Cc2cccc([N+](=O)[O-])c2)c1=O | i | 93.7 | 2.7 | 121.9 | 0.86 | / | 31.2
CC(C)(C)NC(=O)NC(=O)COC(=O)c1cc(=O)[nH]c2ccccc12 | i | 103.7 | -2.1 | 101.3 | 1.02 | -0.5 | -28.6
CC(C)Nc1nc(NNc2nc(Cl)nc(NC(C)(C)C)n2)nc(NC(C)C)n1 | i | 97.3 | / | / | 1.14 | / | /
CN1CCN(S(=O)(=O)c2ccc3c4c(cccc24)C(=O)N3)CC1 | i | 95.9 | 26.2 | / | 0.98 | -2.5 | /
c1ccc2c(c1)NC(CN1CCOCC1)CO2 (stereo unspecified) | i | 96.3 | 15.3 | 107.6 | 1.01 | -0.9 | 21.4
CCCOc1ccc(NC(=O)C2CC(=O)N/C(=N/N=C(C)/C=C/c3ccc(N(C)C)cc3)S2)cc1 (stereo unspecified) | i | 99.0 | 8.4 | 109.8 | 1.04 | 1.8 | -62.5
CCN(CC)C(=S)NC(=O)c1cc(OC)c(OC)c(OC)c1 | i | 100.3 | -11.8 | / | 0.89 | / | /
Cc1cc(C(=O)Nc2nccs2)c2cc(F)ccc2n1 | i | 100.7 | / | / | 0.89 | / | /
C=CCC(C(=O)OC)(C(=O)OC)c1ccc(C(F)(F)F)cc1[N+](=O)[O-] | i | 100.2 | -5.2 | 152.7 | 1.38 | / | -50.0
Clc1ccccc1/C=C/c1nc(-c2cccnc2)no1 | i | 101.2 | / | / | 1.03 | / | /
CCCn1nc(NC(=O)C2CCCO2)c2cc3cccc(C)c3nc21 (stereo unspecified) | i | 99.1 | / | / | 1.01 | / | /
CCOC(=O)C1NC(=O)CC1c1ccccc1 (stereo unspecified) | i | 108.0 | -0.9 | 149.1 | 0.95 | 0.1 | 36.8
COc1ccc(CN2CCN(C3CCOCC3)CC2CCO)c(C)c1C (stereo unspecified) | i | 101.9 | 2.6 | / | 0.97 | / | /
CN1CCN(CCCNC(=O)c2ccc(/C=C3\Sc4ccccc4N(Cc4ccc(F)cc4)C3=O)cc2)CC1 | i | 98.6 | 0.0 | 134.2 | 0.7 | / | -23.1
CCCCOC(=O)CCn1c(=S)oc2ccccc21 | i | 109.1 | 2.0 | 88.8 | 0.94 | -0.1 | 25.0
O=C(CSc1ccccc1)N1CCN(C(=O)c2ccco2)CC1 | i | 100.8 | 0.2 | / | 0.99 | / | /
O=C(Nc1nc(-c2ccc(S(=O)(=O)N3CCCCCC3)cc2)cs1)c1cccs1 | i | 109.8 | -1.3 | / | 0.98 | -0.1 | /
O=C(Nn1cnnc1)c1ccc(Cl)c([N+](=O)[O-])c1 | i | 102.3 | / | / | 1.28 | / | /
O=C(CN1CCN(c2ccccn2)CC1)NC1CCCCC1 | i | 112.5 | -10.3 | 73.6 | 0.91 | -2.3 | 34.3
COc1ccccc1N(CCC#N)C(=O)CSc1ccc2c(c1)OCCO2 | i | 104.6 | -6.2 | / | 0.99 | -0.4 | /
CCn1c(COc2ccc(C)cc2)nc2ccccc21 | i | 91.4 | 4.4 | / | 1.07 | / | /
O=C(Nc1ccccc1)NN1CC(=O)N(c2ccc(Cl)cc2)CC1=O | i | 100.7 | / | / | 1.03 | / | /
CCn1c(C)[n+](CCCS(=O)(=O)[O-])c2cc(Cl)c(Cl)cc21 | i | 99.1 | -9.5 | / | 0.82 | -2.1 | /
C=CCn1c(CSc2nnc(-c3ccccc3)n2C)n[nH]c1=S | i | 95.9 | / | / | 1.01 | / | /
O=C(O)c1cccc(N2C(=O)/C(=C/c3ccc(SCc4ccc(Cl)cc4)o3)SC2=S)c1 | i | 92.0 | -4.4 | / | 1 | / | /
O=C(Nc1nc(COc2ccccc2)cs1)C12CC3CC(CC(C3)C1)C2 | i | 85.4 | -0.8 | 61.9 | 0.86 | -1.1 | -15.6

Screening results from PubChem BioAssay.
